Screening results (PubChem BioAssay)
Mtb H37Rv: Mycobacterium tuberculosis H37Rv growth inhibition, cell based, confirmatory dose response (AID 1949); M. tuberculosis H37Rv growth inhibition; most inactive calls were filed without a number and no value below 0 was filed; one-dose inhibition, % at 10 µg/mL; IC50 in µg/mL for titrated hits; actives 1.6% (n = 100,000);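 active means confirmed in a dose series; inconclusive means about 50% or more but not retested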;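 further: bacteria grown 7 days with compound before Alamar blue readout; 0% = untreated bacteria and 100% = reference antibiotic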
The depositor's hits bear a star; i = inactive; ? = inconclusive.

A first look, nine compounds:
SMILES	Mtb H37Rv
CCCS(=O)(=O)c1nc(S(=O)(=O)c2ccc(C)cc2)c(NC)s1	i
Cc1ccc(N2CCN(C(=O)c3ccc(Br)cc3)CC2)cc1Cl	3%
COc1ccccc1NC(=O)CC1S/C(=N\N=C(/C)C2CCCCC2)NC1=O (stereo not drawn)	0%
COc1cccc(NC(=O)c2ccc(-c3cccc(Cl)c3Cl)o2)c1	1%
CS(=O)(=O)N1CCN(C(=O)c2c(F)cccc2F)CC1	i
Cc1ccc(NC(=O)C2=C(c3ccccc3)NC(=S)NC2c2ccc(C(C)C)cc2)cc1 (stereo not drawn)	12%
COCCNC(=S)Nc1cnc2ccccc2c1	i
C=C(C)CN(Cc1ccccc1)C(=S)Nc1ccccc1	i
CC(C)C(=O)Nc1cccc(C(=O)Nc2ccccc2)c1	i

Results (from the top)
SMILES	Mtb H37Rv
CCCS(=O)(=O)c1nc(S(=O)(=O)c2ccc(C)cc2)c(NC)s1	i
Cc1ccc(N2CCN(C(=O)c3ccc(Br)cc3)CC2)cc1Cl	3%
COc1ccccc1NC(=O)CC1S/C(=N\N=C(/C)C2CCCCC2)NC1=O (stereo not drawn)	0%
COc1cccc(NC(=O)c2ccc(-c3cccc(Cl)c3Cl)o2)c1	1%
CS(=O)(=O)N1CCN(C(=O)c2c(F)cccc2F)CC1	i
Cc1ccc(NC(=O)C2=C(c3ccccc3)NC(=S)NC2c2ccc(C(C)C)cc2)cc1 (stereo not drawn)	12%
COCCNC(=S)Nc1cnc2ccccc2c1	i
C=C(C)CN(Cc1ccccc1)C(=S)Nc1ccccc1	i
CC(C)C(=O)Nc1cccc(C(=O)Nc2ccccc2)c1	i
Cn1c(=O)c2c(ncn2Cc2ccccc2C#N)n(C)c1=O	i
Cc1ccc(S(=O)(=O)Nc2ccc(CCC(=O)N3CCCC3)cc2)cc1	i
S=C(NCC1CCCO1)Nc1ccc(I)cc1 (stereo not drawn)	0%
CCc1[nH]nc2c1C(c1ccc3c(c1)c1ccccc1n3CC)C(C#N)=C(N)O2 (stereo not drawn)	1%
O=C(Nc1ccc(S(=O)(=O)N2CCCCC2)cc1)C1CCCCC1	i
O=C(Cc1ccc(Cl)cc1)Nc1ccc(C(=O)N2CCOCC2)cc1	i
O=C1CC(N2CCC(n3c(=O)[nH]c4ccccc43)CC2)C(=O)N1Cc1ccccc1 (stereo not drawn)	1%
O=C(Oc1ccccc1C(=O)Oc1ccccc1)c1ccco1	?
O=Cc1ccc(OCC(=O)N2CCN(c3ccccc3)CC2)cc1	i
COc1cc(S(=O)(=O)N2CCN(c3cc(Cl)ccc3Cl)CC2)c(OC)cc1Br	0%
Cc1ccc(Cn2ncc3c(N4CCN(C5CCCC5)CC4)ncnc32)cc1	6%
O=C(CC12CC3CC(CC(C3)C1)C2)NC(=S)Nc1cccc(Br)c1	i
O=C(NCCC1=CCCCC1)C1CCN(C(=O)Cc2ccccc2)CC1	i
Cc1ccc(C(=O)Nc2cc3cc(Cl)ccc3oc2=O)cc1	i
COCCn1c(C)cc(/C=C(/C#N)c2cccc([N+](=O)[O-])c2)c1C	i
CC(=O)Nc1ccc(OCc2cccc(Br)c2)cc1	0%
COc1cccc(C(=O)N2CCN(C(=O)c3cccc(F)c3)CC2)c1OC	i
Fc1ccccc1NC(=S)NCc1ccc2c(c1)OCO2	i
CCc1cc2c(N3CCN(c4ccccc4)CC3)ncnc2s1	?
Oc1ccccc1Oc1c(F)c(F)c(C(F)(F)F)c(F)c1F	i
O=C(Nc1ccccc1[N+](=O)[O-])c1ccc(Cl)c(S(=O)(=O)Nc2cccc(C(F)(F)F)c2)c1	i
O=C(O)C1CC=CCC1C(=O)Nc1ccccc1C(F)(F)F (stereo not drawn)	i
Cc1cc(C)nc(SCC(=O)Nc2cc([N+](=O)[O-])ccc2C)n1	i
CCc1ccc(C(=O)OCC(=O)c2ccc(Br)cc2)cc1	i
COc1ccccc1C(=O)Nc1ccc(O)cc1C(=O)O	8%
Cc1ccc(NC(=O)CN2CCOCC2)cc1	i
Cc1ccc(S(=O)(=O)NC(=O)c2ccccc2)c(C)c1	i
CC(C)c1ccc(S(=O)(=O)NC(c2ccccc2)c2ccccc2)cc1	4%
CCOc1cc(C(=O)Nc2cc(C(F)(F)F)cc(C(F)(F)F)c2)cc(OCC)c1OCC	i
COc1ccc(CCNC(=O)C2CCN(C(=O)c3ccc(Cl)cc3)CC2)cc1	i
CCOC(=O)c1ccc(NC(=S)Nc2ncn(Cc3cccc(C(F)(F)F)c3)n2)cc1	i
O=C(c1ccc(S(=O)(=O)NCC2CCCO2)cc1)N1CCc2ccccc21 (stereo not drawn)	i
Cc1cc(C(F)F)n2nc(C(=O)Nc3c(C)nn(Cc4c(Cl)cccc4Cl)c3C)nc2n1	i
Cc1ccc(N(CC(=O)Nc2ccc3c(c2)OCCO3)S(=O)(=O)c2ccc(Cl)cc2)cc1C	i
CN1CCCC1C(O)(c1ccccc1)c1ccccc1 (stereo not drawn)	2%
CCOC(=O)c1c(C)nn(Cc2ccccc2)c1N	i
Cc1nn2c3ccccc3n(CCN3CCOCC3)c2nc1=O	i
COC(=O)c1ccccc1NC(=O)C1CCN(S(C)(=O)=O)CC1	i
Cn1c(=O)c2nc3ccc(N)cc3nc2n(C)c1=O	i
CC(C)NC(=O)C(=O)NCCN1CCOCC1	i
CC(C)(C)C(=O)NC(=S)N1CCCC1	3%
C=C(C)Cn1c(CCCNC(=O)c2cccs2)nc2ccccc21	i
Cc1cc(C)c(C#N)c(SCC(=O)Nc2sc3c(c2C#N)CCC3)n1	i
CCCCc1ccc(NC(=S)NC(=O)c2cc3ccccc3cc2OC)cc1	i
Cc1ccc(C)c(C(=O)Nc2ccc3c(c2)OCO3)c1	i
CCc1ccc(OCC(=O)Nc2ccc(S(=O)(=O)N3CCOCC3)cc2)c(Br)c1	i
Cc1ccc(COc2ccc(C(=S)N3CCCCC3)cc2)cc1	2%
CCN(CC)CCCN1C(=O)C(O)=C(C(=O)c2cc3cccc(OC)c3o2)C1c1ccccn1 (stereo not drawn)	3%
COC(=O)C1=CN(c2cccc(Cl)c2)C=C(C(=O)OC)C1c1ccc(F)cc1	3%
Cc1ccc(S(=O)(=O)N2CCCC(C(=O)N3CCCCCC3)C2)cc1 (stereo not drawn)	i
CC(Oc1ccc2c(c1)OCO2)C(=O)NNC(=O)NC12CC3CC(CC(C3)C1)C2 (stereo not drawn)	4%

(list continues)
SMILES	Mtb H37Rv
Cc1cc(OCCOCCOc2ncnc3ccccc23)ccc1Cl	i
CCN(C(=O)CCC1CCCCC1)c1ccccc1C	6%
CCOC(=O)c1ccc(N2C(=O)CC(N3CCN(c4ccccc4O)CC3)C2=O)cc1 (stereo not drawn)	i
NC(=O)CSCC(=O)Nc1ccccc1	i
O=C(Nc1nccs1)c1ccccc1OCc1ccccc1Cl	5%
CCOC(=O)N1CCN(C(=O)CN(c2ccc(Cl)c(C(F)(F)F)c2)S(C)(=O)=O)CC1	i
O=C(Nc1ccc(O)cc1)c1cc(S(=O)(=O)N2CCOCC2)c(Cl)cc1Cl	i
CCC(=O)NC(=S)Nc1ccc(C(=O)O)c(Cl)c1	i
Cc1nnc(SCC(=O)Nc2ccc(/C=C/c3ccccc3)cc2)s1	i
CC(C)C(=O)Nc1ccc(C(=O)Nc2cccc(F)c2)cc1	2%
COc1cc(C(=O)Nc2ccc(S(=O)(=O)N3CCOCC3)cc2)cc(OC)c1OC	i
CS(=O)(=O)N(CC(=O)N1CCC(Cc2ccccc2)CC1)c1cc(Cl)ccc1Cl	i
COc1cc(OC)c(C(=O)O/N=C(\N)c2ccccn2)cc1OC	i
CCOC(=O)c1cnc2ccc(OC)cc2c1Nc1ccc(N2CCOCC2)cc1	i
Cc1cc(OCCCN2C(=O)NC(C)(C)C2=O)c(C)cc1Cl	3%
Cc1ccc2nc(-c3ccc(NC(=O)CSc4nnc(C)s4)cc3)sc2c1	3%
O=C(O)C12C3CCCC1C32c1ccccc1 (stereo not drawn)	1%
CCOc1cc(CNCCCO)cc(Cl)c1OCc1ccccc1F	13%
O=[N+]([O-])c1ccccc1S(=O)(=O)N1CCN(Cc2ccsc2)CC1	i
COc1cccc(NC(=O)NCCc2ccc(Cl)cc2)c1	i
O=C(COc1ccccc1)NC(=S)Nc1ccc(NC(=O)c2cc3ccccc3o2)cc1	i
CCCC(=O)Nc1ccc(Cl)c(NC(=O)c2cccc(C)c2)c1	1%
Cc1c(CC(C)C)nc(C#N)c(N)c1-c1ccccc1	3%
CNCCOc1cccc2ccccc12	i
O=C(Nc1ccc(C(=O)c2ccccc2)cc1)c1cccc([N+](=O)[O-])c1	1%
CCOC(=O)C(C)Sc1ncnc2c1sc1nc(N3CCOCC3)c3c(c12)CC(C)(C)OC3 (stereo not drawn)	i
Fc1ccc(NC(=S)NC2CCN(Cc3ccccc3)CC2)cc1	i
COc1ccc(-c2cc(C(=O)Nc3ccc(C)cc3)c3ccccc3n2)cc1OC	i
COc1ccc2c(c1)C(C)=CC(C)(C)N2C(=O)CSc1nnc(C)s1	i
CCC(=O)NC(=Nc1nc(C)c2cc(C)ccc2n1)NC(=O)CC	19%

Given field by field: 4 of the compounds above
Molecule: O=C(Nc1ccc(C(=O)c2ccccc2)cc1)c1cccc([N+](=O)[O-])c1
- Mtb H37Rv = 1%
Molecule: CCOC(=O)C(C)Sc1ncnc2c1sc1nc(N3CCOCC3)c3c(c12)CC(C)(C)OC3 (stereo not drawn)
- Mtb H37Rv = i
Molecule: Fc1ccc(NC(=S)NC2CCN(Cc3ccccc3)CC2)cc1
- Mtb H37Rv = i
Molecule: COc1ccc(-c2cc(C(=O)Nc3ccc(C)cc3)c3ccccc3n2)cc1OC
- Mtb H37Rv = i

Next part.
SMILES	Mtb H37Rv
NC(=O)c1ccc(NC(=O)C2CCCC2)cc1	i
CC(=O)Nc1ccc(N(C)S(C)(=O)=O)cc1	i
COc1ccc(C2=C(/C=C3\SC(=S)NC3=O)C(c3ccccc3C)c3ccccc3O2)cc1OC (stereo not drawn)	31%
CC(NC(=S)N1CCN(c2ccccn2)CC1)C12CC3CC(CC(C3)C1)C2 (stereo not drawn)	i
CCOc1cccc(C(=O)NC(=S)Nc2ccc(Br)cc2C(=O)O)c1	i
CC(C)C(C(=O)O)c1ccc([N+](=O)[O-])cc1 (stereo not drawn)	i
O=C(c1cccs1)N1CCN(Cc2cccc3ccccc23)CC1	i
CC(C)c1ccc(OCC(=O)NNC(=S)NC(=O)c2ccco2)c(Br)c1	0.25µg/mL*
COc1cccc(S(=O)(=O)NCc2ccc(C(=O)NCc3ccccn3)cc2)c1	i
COc1ccc(C)cc1NC(=O)CC(C)(C)C	0%
Cc1ccccc1OCC(=O)Nc1ccc(N2CCN(C)CC2)cc1	i
CS(=O)(=O)Oc1ccc2c(c1)oc(=O)c1ccccc12	i
COc1cccc(C(=O)NCc2ccccc2Cl)c1OC	19%
Cn1c(=O)n(C)c2cc(NC=O)c(Br)cc21	i
COCCCNC(=S)NCCC1=CCCCC1	i
CSc1nc2sc3c(c2c2nnc(SCc4ccccc4)n12)CC(C(C)C)OC3 (stereo not drawn)	5%
O=C(CC(NCCO)C(=O)O)Nc1cccc(C(F)(F)F)c1 (stereo not drawn)	i
O=C(Nc1ccc(Nc2ccccc2)cc1)NC1CCCCC1	47%
COC(=O)c1c(NC(=O)Nc2cccc(Cl)c2)sc2c1CCCC2	i
O=C(c1cc2ccccc2o1)N1CCN(c2ccc(C(F)(F)F)cc2[N+](=O)[O-])CC1	i
CCCOc1ccc(C2=[N+]([O-])C3(CCCCC3=O)N(O)C2(C)C)cc1 (stereo not drawn)	i
O=C(COc1ccccc1[N+](=O)[O-])Nc1ccc(I)cc1C(F)(F)F	i
CC(C)(C)c1ccc(OCC(N)=O)c(Br)c1	i
COc1ccc(Cc2noc(-c3ccccc3)n2)cc1	i
CCc1ccc(CN2CCN(C(=O)c3ccccc3)CC2)cc1	1%
COc1ccc(CNC(=O)C2CCN(C(=O)c3ccc(-c4ccccc4)cc3)CC2)cc1	4%
O=C(CSc1ncnc2sc3c(c12)CCC3)N1CCCCC1	i
O=c1c2cc(Br)ccc2ncn1Cc1ccc(Cl)cc1	2%
CCC(=O)Nc1ccc(C(=O)Nc2cc(OC)ccc2NC(=O)c2ccco2)cc1	i
CC(NC(=O)C1CCC1)c1ccc2c(c1)OCO2 (stereo not drawn)	i
CCn1c(COc2cccc3cccnc23)nnc1SCC(N)=O	i
CN1CCN(NC(=O)c2ccc(Cl)cc2Cl)CC1	i
Cc1c(N/C(=N/S(=O)(=O)c2ccc(F)cc2)c2ccccc2)c(=O)n(-c2ccccc2)n1C	0%
COc1cccc(COc2cc(C)cc3oc(=O)c4c(c23)CCC4)c1	i
Cc1cc(C)nc(SCC(=O)c2ccc(Oc3ccccc3)cc2)n1	0%
CCN(CC)C(=O)c1c(NC(=O)c2cccs2)sc2c1CCC2	1%
Cc1ccc(NC(=O)CCc2ccccc2)cc1CN1C(=O)c2ccccc2C1=O	i
Cc1cc(C)c(S(=O)(=O)N2CCCCC2)c(C)c1N(C)S(=O)(=O)c1ccccc1	i
O=C(O)C1CC=CCC1C(=O)Nc1ccc2ccccc2c1 (stereo not drawn)	i
S=C(NCc1ccccc1)N1CCCCC1	i
COc1cc(NC(=O)C2CC(=O)N=C(N)S2)c(OC)cc1Cl (stereo not drawn)	i
O=C(NC1CCCCC1)N1CCN(c2ccccn2)CC1	1%
COc1cc(CNc2ccccc2Cl)cc(I)c1OC	0%
O=c1c2ccccc2nc2c3ccccc3c(NCc3ccccn3)nn12	i
CCOc1c(S(=O)(=O)NCc2ccco2)ccc(Cl)c1Cl	5%
COc1ccc(CC(=O)Nc2cccc(-c3nc4ccccc4[nH]3)c2)cc1	3%

Not all compounds are listed. The share of hits here may be higher or lower than overall.
